CBX7 AlphaScr: CBX7 inhibition, primary AlphaScreen. O95931. normalised signal (fraction of DMSO) (no concentration beside the values). AID 1224903. actives 1.1% (n = 66,000). AlphaScreen His6-CBX7 / biotin-H3K27me3 peptide binding; active compounds read low; in the data active = normalised signal below about 0.5;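 note: 100 nL library stock added to about 20 µL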
Target sequence (O95931 whole entry, looked up): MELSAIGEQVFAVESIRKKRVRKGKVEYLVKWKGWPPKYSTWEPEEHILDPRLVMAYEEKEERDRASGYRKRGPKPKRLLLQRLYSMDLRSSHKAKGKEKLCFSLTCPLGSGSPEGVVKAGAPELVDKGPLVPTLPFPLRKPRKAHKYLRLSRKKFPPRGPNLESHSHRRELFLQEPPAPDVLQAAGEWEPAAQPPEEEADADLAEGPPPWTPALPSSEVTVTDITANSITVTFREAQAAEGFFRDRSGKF
CBX7 AlphaScr z-score: second read-out of CBX7 AlphaScr, no call of its own (marks repeat the call); z-score; measured here: z-score of CBX7 signal; some inactives read as strong as hits; reference of the scale not given here;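 same signal on another scale; lower means less binding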
An asterisk follows results filed as active; & = joins results of further samples.

Every second line gives: CBX7 AlphaScr, CBX7 AlphaScr z-score
O=C(c1cc(-c2ccc(Cl)c(Cl)c2)on1)N1CCOCC1
 : 0.99, -0.072
CCOC(=O)c1nc(Nc2ccc(NC(C)=O)cc2)c2ccccc2n1
 : 0.92, -2.7
COc1ccc(OC)c(NC(=O)c2cnc3ccccn3c2=O)c1
 : 1.1, 1.8
CCn1cc(C(=O)NCc2ccc(F)cc2)c(=O)c2ccc(C)nc21
 : 0.97, -0.27
Clc1ccc(Oc2nc(-c3cccnc3)nc3ccccc23)cc1
 : 1, 1.2
CC(Oc1ccccc1F)C(=O)NC1CCS(=O)(=O)C1 (stereo not drawn)
 : 0.93, -0.76
COc1cccc(N2C(=O)c3ccc(C(=O)Nc4ccccc4OC)cc3C2=O)c1
 : 0.95, -1.2
O=C(NC1CCCCCC1)c1csc2c1CCCC2
 : 1.1, 3
O=C(NCCN1CCCCCC1)C1CCC(CNS(=O)(=O)c2cccc3cccnc23)CC1 (stereo not drawn)
 : 1, 0.43
CC(C)c1ccc(Nc2cc(C(=O)O)c3ccccc3n2)cc1
 : 1.1, 1.6
O=C(Nc1ccc(F)cc1)N1CCN(c2ccc3nnc(-c4ccccc4)n3n2)CC1
 : 0.84, -2.2
COC(=O)c1cccc(Nc2ncnc3ccc(Br)cc23)c1
 : 1, 0.78
Cc1cc(NC(=O)c2cccc(COc3cc(Cl)ccc3Cl)c2)no1
 : 1, 0.6
Cc1ccc(-n2cnc3cc(C(=O)N4CCOCC4)ccc32)c(C)c1
 : 0.98, -0.32
CC(=O)Nc1ccc(-n2c(CCC(=O)O)ccc2-c2cccs2)cc1
 : 0.93, -1.2
COc1ccc(CNC(=O)c2noc3c2CCc2cc(OC)ccc2-3)cc1
 : 1.1, 0.45
COc1ccc(-c2ccc(Cc3nc(-c4ccccc4)no3)cc2)cc1
 : 0.98, -0.017
CCC1Oc2ccc(Cl)cc2N(CC(=O)NCC2CCCN2CC)C1=O (stereo not drawn)
 : 1, 0.025
COc1ccc(-n2nc(C(=O)Nc3cc(C)c(Cl)cc3OC)c3ccccc3c2=O)c(OC)c1
 : 0.91, -2.5
O=S(=O)(c1ccccc1)c1nc(-c2ccccc2)oc1SCc1ccccc1F
 : 0.92, -0.38
Cc1cc(NC(=O)CSc2nnc(-c3ccc(F)cc3)o2)no1
 : 0.97, -0.39
Cn1c(-c2ccc(F)cc2)[n+](C)c2ccccc21
 : 0.81, -2.1
CCOc1ccc(C(=O)Nc2ccc3oc(-c4cccnc4)nc3c2)cc1
 : 1, -0.0052
CC1(C)CNC(=O)c2sc(NC(=O)c3ccccc3Cl)nc2C1
 : 0.99, -0.1
CC1CC(C)CN(C(=O)c2cn(C3CCCCC3)c(=O)c3c2c2ccccc2n3C)C1 (stereo not drawn)
 : 0.9, -2.4
Cc1ccc(NC(=O)c2cc3c(n(-c4ccc(C)cc4)c2=O)CC(C)(C)CC3=O)cc1
 : 1.3, 1.2
COc1ccc(NC(=O)CCn2nc(-c3ccc(C)cc3)c3ccccc3c2=O)cc1C(N)=O
 : 0.93, -1.9
Cc1ccc(C)c(-n2c(Cc3cc(=O)[nH]c(=O)[nH]3)nnc2SCC(=O)NCc2ccccc2)c1
 : 1.1, 0.18
CCC1=Nc2cc(C(=O)NCCCN3CCOCC3)ccc2Sc2ccccc21
 : 0.85, -1.7
O=C(C1CCC(=O)N1C1CCCC1)N1CCN(c2ccc(F)cc2)CC1 (stereo not drawn)
 : 1.1, 2.4

(cont.)
Every second line gives: CBX7 AlphaScr, CBX7 AlphaScr z-score
Cc1ccc(-n2c3c(cc(C(=O)Nc4ccccc4Cl)c2=O)C(=O)CCC3)cc1
 : 1.1, 0.88
CCn1cc(C(=O)Nc2ccccc2OC)c2cc(OC)c(OC)cc2c1=O
 : 1.1, 1.1
CCN1C(=O)c2ccccc2Sc2ccc(C(=O)NCCCN3CCC(C)CC3)cc21
 : 1.1, 1.9
Cc1c(Cl)cccc1NC(=O)C1CCCN(c2nnc(-n3cccc3)s2)C1 (stereo not drawn)
 : 1, 0.19
Cc1c(NC(=O)c2ccc3c(c2)OCO3)cccc1-c1nc2ncccc2o1
 : 1, 0.85
CN1CCN(C(=O)c2cn(C3CCCC3)c(=O)c3c2c2ccccc2n3C)CC1
 : 0.91, -0.094
CC(C)CCNC(=O)c1ccc2c(c1)N(Cc1cccc(Cl)c1)C(=O)c1ccccc1S2(=O)=O
 : 0.98, -0.11
Cc1cccc(-n2nc3c(c2NC(=O)COc2ccccc2)CSC3)c1C
 : 0.94, -0.96
CCC(C)NC(=O)CNC(=O)Cn1ccc2ccccc2c1=O (stereo not drawn)
 : 0.99, -0.089
Cc1ccc(Nc2c(-c3ccc(N4CCOCC4)cc3)nc3c(C)cccn23)cc1
 : 0.85, -1.5
COc1ccc(-n2nc(C(=O)Nc3cc(Cl)ccc3OC)c3ccccc3c2=O)cc1
 : 1, -0.052
CCOC(=O)c1ccc(NC(=O)c2cc3c(s2)-c2c(C)cccc2OC3)cc1
 : 1.1, 2.2
O=C(Nc1cccc(-c2cn3ccccc3n2)c1)c1ccc(F)cc1
 : 1.1, 2.5
O=C(NCCc1c[nH]c2ccccc12)C(=O)NCc1ccccc1
 : 1.2, 3.2
CCOc1ccccc1N(C)C(=O)c1nn(-c2ccccc2OC)c(=O)c2ccccc12
 : 0.96, -0.88
COc1ccc(NC(=O)c2c(NCc3ccccn3)sc3c2CCC(C)C3)c(OC)c1 (stereo not drawn)
 : 0.54, -6.5
Cc1ccc(CNC(=O)c2cc(=O)n(Cc3ccc(C)cc3)c3ccccc23)cc1
 : 0.96, -0.43
CCOc1ccc(-c2cc(C(=O)NCCN(C)Cc3ccccc3)c3ccccc3n2)cc1
 : 1.1, 2.6
Cc1ccc(NC(=O)C(=O)NCCCn2ccnc2)cc1Cl
 : 0.91, -3
CCn1c(C(=O)N2CCC(C(=O)NC3CCCc4ccccc43)CC2)cc2sccc21 (stereo not drawn)
 : 0.78, -0.96
CCc1nc2ccccc2n1CC(O)COc1ccc(C(=O)OC)cc1 (stereo not drawn)
 : 1, 0.076
COC(=O)c1cnc(Nc2ccccc2F)c2ccccc12
 : 1.4, 11
CC(NC(=O)[C@@H](c1ccccc1)N1Cc2ccccc2C1=O)c1cccs1 (stereo partly drawn)
 : 1, 0.83
Cc1ccc(NC(=O)c2c(O)c3ccccc3[nH]c2=O)cc1
 : 0.97, -0.37
O=C(CN1C(=O)COc2ccc(S(=O)(=O)N3CCOCC3)cc21)N1CCN(c2ccccc2)CC1
 : 0.92, -1.2
O=C(NC1CCCC1)C1=CCN(S(=O)(=O)c2ccc(Br)cc2)CC1
 : 1, 1.9
Cc1cc(NS(=O)(=O)c2ccc3c(c2)CCN3C(=O)C2CC2)ccc1Br
 : 0.96, -1.1
CCOc1ccc(N2C(=O)CC(N3CCC(O)(c4ccc(Br)cc4)CC3)C2=O)cc1 (stereo not drawn)
 : 1&0.95, 0.98&-1.1
O=C(O)c1ccc2c(c1)NC(=O)C(CS(=O)(=O)Cc1ccc(F)cc1Cl)N2 (stereo not drawn)
 : 0.95, -1.1
CCOC(=O)CNC(=O)c1c(-c2ccccc2Cl)noc1C
 : 1, 0.24

Later entries.
SMILES	CBX7 AlphaScr	CBX7 AlphaScr z-score
Cc1cccc(CC(=O)N2CC(=O)Nc3ccc(Cl)cc3C2c2ccc(F)cc2)c1 (stereo not drawn)	0.76	-2.3
Clc1ccc(-n2ncc3c(NCc4ccccn4)ncnc32)cc1	1.1	1.8
COc1ccc(NC(=O)c2cccc(C#CC3(O)CCCCC3)c2)cc1	0.9	-0.49
COc1cc(OC)cc(-c2nc3nc(C)c(CCC(=O)NCCCOC(C)C)c(C)n3n2)c1	1.6	2.6
COCCCNC(=O)c1cc2c(s1)-c1c(C)cccc1OC2	1.1	3.5
Cc1cc2ncc(-c3ccc(Br)cc3)nc2cc1C	1.1	0.66
O=C(NCc1ccccc1)c1ccc2c(c1)N(Cc1ccc(F)cc1)C(=O)c1ccccc1S2(=O)=O	0.96	-0.74
COc1ccc(Br)c(C(=O)N2CCNc3ccccc3C2)c1	1	0.049
CCOc1ccc(N(CC)S(=O)(=O)c2ccc3c(c2)CCN3C(C)=O)cc1	1.1	1
O=C(C1c2ccccc2C(=O)N2CCc3ccccc3C12)N1CCN(c2ccccn2)CC1 (stereo not drawn)	0.95	-0.89
Cc1nc(C)c(C(=O)Nc2ccc(C)c(Cl)c2)o1	0.94	-1.3
Cc1ccc(S(=O)(=O)NC(C)(C)CN2CCN(C(c3ccccc3)c3ccccc3)CC2)cc1	1.1	0.83

Continuation.
SMILES	CBX7 AlphaScr	CBX7 AlphaScr z-score
Cc1cc(NC(=O)CSc2nccn2C)ccc1F	1.1	1.4
Cc1ccccc1NC(=O)CSc1nnc(C)c2ccccc12	1&0.72	0.29&-1.1
COc1ccc(-c2nc(Cn3c(SCc4cc(C)ccc4C)nc4ccncc43)c(C)o2)cc1	0.85	-7.2
Cc1cc(C)c2nc(N3CCC(C(=O)NCCCc4ccccc4)CC3)sc2c1	1.1	2.3
Cc1cccc(NC(=O)CCc2nc(-c3cccs3)no2)n1	0.98	-0.022
CCN1CCN(CCCNC(=O)CCc2cn(C)c3ccccc23)CC1	1	0.056
CCOc1ccccc1NC(=O)C1CC(=O)N(c2ccc(C)cc2)C1 (stereo not drawn)	0.88	-2
Clc1ccccc1Nc1nc2nonc2n2cnnc12	1&0.99	0.15&-0.2
CCOc1ccc(-c2cc3cc(OC)c(OC)cc3c(Cc3ccc(OC)cc3)n2)cc1	1	0.12
CN(C)CCNC(=O)CCc1nc(-c2ccccc2F)no1	1	1.1
CC(=O)Nc1cccc(Oc2ccc3c(c2)C(=O)N(c2cccc(Cl)c2)C3=O)c1	0.85	-2.2
COc1ccc(CC(=O)Nc2ccc3nc(N4CCOCC4)cc(C)c3c2)cc1	1.1	1.1

(list continues)
SMILES	CBX7 AlphaScr	CBX7 AlphaScr z-score
c1ccc(CNc2ccc3nnc(-c4ccccc4)n3n2)cc1	0.95	-0.6
NC(=O)Cc1nc(-c2ccc(Br)cc2)cs1	1.1	1.5
CCOC(=O)C1CCCN(c2c(N3CCN(c4ccc(F)cc4)CC3)c(=O)c2=O)C1 (stereo not drawn)	0.99	-0.12
CN(CC(=O)N1CCCCC1)S(=O)(=O)c1cccc2cccnc12	1.4	8.2
CCOc1ccc(C2c3[nH]c4ccccc4c3CCN2C(=O)c2ccccc2C)cc1 (stereo not drawn)	0.7	-8
COc1ccc(C2CC(=O)C3=C(C2)Nc2ccccc2NC3c2cccc(OC)c2OC)cc1OC (stereo not drawn)	0.95	-1.2
COC(=O)c1cccc(C(=O)Nc2ccc(Br)cc2)n1	1	0.024
CCc1ccc(-c2nc(CN3CCC(C(=O)NC4CCCc5ccccc54)CC3)c(C)o2)cc1 (stereo not drawn)	0.95	-0.76
O=C(NCCCN1CCOCC1)C(=O)Nc1ccccc1Cl	0.92	-0.97
O=C(C1CC1)N1CCc2cc(S(=O)(=O)Nc3ccccc3F)ccc21	0.79	-0.83
C=CCNC(=O)CCN1N=C(c2ccc(OC)cc2)CCC1=O	1	0.43
COc1cccc(NC(=O)c2oc3ccc(S(=O)(=O)N4CCOCC4)cc3c2C)c1	0.97	-0.36

(next part)
SMILES	CBX7 AlphaScr	CBX7 AlphaScr z-score
CC(NC(=O)c1ccc2c(c1)N(Cc1ccccc1Cl)C(=O)c1ccccc1S2)c1ccccc1 (stereo not drawn)	0.97	-0.67
Cc1ccc2c(c1)N(CCC(=O)NCc1ccccn1)C(=O)CO2	0.34*	-8.9*
Cc1cc(C)c(Cc2c(C)nc3c(C(=O)N4CCOCC4)cnn3c2C)c(C)c1	1.1	1.6
COc1cc(OC)cc(C(=O)c2ccc(C(=O)NC3(c4ccccc4)CC3)cc2)c1	1	0.24
COc1ccc(N2CCN(C(=O)c3cn(C)c(=O)c4ccccc34)CC2)cc1	1	1.6
CCCCCCNC(=O)c1c[nH]c2ccc(S(=O)(=O)N(CC)c3ccccc3)cc2c1=O	0.97	-0.48
COC(=O)c1ccc2c(c1)N(Cc1cccc(F)c1)C(=O)CS2(=O)=O	0.95	-0.95
Cc1cc(N2C(=O)c3ccc(C(=O)N4CCCc5ccccc54)cc3C2=O)no1	1	0.6
CCc1ccc(NC(=O)c2cn(C)c(=O)c3cc(OC)c(OC)cc23)cc1	0.96	-0.63
CN(C(=O)Cc1c(C(=O)O)n(C)c2ccccc12)c1ccc(Cl)cc1	1	0.26
Cc1onc(-c2c(Cl)cccc2Cl)c1C(=O)NCCCN(C)C	0.99	-0.52
NC(=O)c1c(NC(=O)c2ccccc2Cl)sc2c1CCCC2	1	0.21

Among those listed so far, 5 contain an NH in an aromatic ring:
SMILES	CBX7 AlphaScr	CBX7 AlphaScr z-score
Cc1ccc(C)c(-n2c(Cc3cc(=O)[nH]c(=O)[nH]3)nnc2SCC(=O)NCc2ccccc2)c1	1.1	0.18
O=C(NCCc1c[nH]c2ccccc12)C(=O)NCc1ccccc1	1.2	3.2
Cc1ccc(NC(=O)c2c(O)c3ccccc3[nH]c2=O)cc1	0.97	-0.37
CCOc1ccc(C2c3[nH]c4ccccc4c3CCN2C(=O)c2ccccc2C)cc1 (stereo not drawn)	0.7	-8
CCCCCCNC(=O)c1c[nH]c2ccc(S(=O)(=O)N(CC)c3ccccc3)cc2c1=O	0.97	-0.48

Filtered by structure: the compounds so far with a COOH group (four)
SMILES	CBX7 AlphaScr	CBX7 AlphaScr z-score
CC(C)c1ccc(Nc2cc(C(=O)O)c3ccccc3n2)cc1	1.1	1.6
CC(=O)Nc1ccc(-n2c(CCC(=O)O)ccc2-c2cccs2)cc1	0.93	-1.2
O=C(O)c1ccc2c(c1)NC(=O)C(CS(=O)(=O)Cc1ccc(F)cc1Cl)N2 (stereo not drawn)	0.95	-1.1
CN(C(=O)Cc1c(C(=O)O)n(C)c2ccccc12)c1ccc(Cl)cc1	1	0.26

These rows are one share of the data; rates above refer to the full screens.
